# From PubChem BioAssay
# Biofilm kill mix – clotrimazole potentiators killing C. albicans biofilm, primary screen, 4-compound mixtures. C. albicans biofilm persisters + clotrimazole, fluorescence viability; primary screen in compound mixtures of four per well. inhibition, % at 7.6 µM. 120,000 compounds, 0.02% hits;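 active means inhibition above 30.3% in the primary screen of four-compound pools, then above 30% when the compound was retested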;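 further: compounds exposed to preformed 24 h biofilms for 48 h; the number belongs to the whole pool; some results filed as inactive read as strong as hits; inactives centre near 12; 0% = biofilm with clotrimazole alone and 100% = kill control; retested singly at about 60 µM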
#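 Test system: C. albicans CAF4-2 wild-type biofilms; buffer or medium: RPMI/MOPS medium, pH 7.0; schedule: 24 h biofilm formation, then 48 h compound exposure, 37 °C; detection: Alamar Blue fluorescence; measure: percent inhibition of biofilm viability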
# * marks the source's active call; other numbers are inactive results.
> COc1ccc(C2/C=C\CN(C(=O)c3ccccc3)[C@H](Cc3ccccc3)C(=O)N2Cc2ccc(F)cc2)cc1 (stereo partly specified)
  Biofilm kill mix: 21
> Cc1cc(C)nc(NC(=NCCc2c[nH]c3ccccc23)NC(=O)Nc2ccc(Cl)c(Cl)c2)n1
  Biofilm kill mix: 12
> CCS(=O)(=O)Nc1ccc(C2=NN(S(C)(=O)=O)C(c3cccs3)C2)cc1 (stereo unspecified)
  Biofilm kill mix: 26
> COCCNc1nc2nonc2nc1N1CCCC1c1nccs1 (stereo unspecified)
  Biofilm kill mix: 29
> O=c1[nH]c(N2CCCCCC2)nc2ncn(Cc3ccccc3)c12
  Biofilm kill mix: 15
> Cc1ccc(S(=O)(=O)N2CCN(CC(=O)N/N=C/c3ccc(C)o3)CC2)cc1
  Biofilm kill mix: 11
> CCN1CCN(c2cc(C)c3cc(NC(=S)N4CCOCC4)ccc3n2)CC1
  Biofilm kill mix: 12
> Cc1cccc(OCC(=O)NNC(=O)c2ccc([N+](=O)[O-])cc2)c1
  Biofilm kill mix: 13
> Cc1cc(NC(=O)CSc2nc3ccccc3n2CCC#N)no1
  Biofilm kill mix: 17
> CCOC(=O)N1CCc2[nH]c3ccc(C)cc3c2C1
  Biofilm kill mix: 5
> Cc1ccc(C(=O)NNC(=O)Cc2cccs2)cc1
  Biofilm kill mix: 9
> C/C(=N/NC(=O)CNC(=O)c1ccccc1F)c1ccc2c(c1)CCCC2
  Biofilm kill mix: 16
> Cc1ccc(C(C)NC(=O)Cn2nc(C)c([N+](=O)[O-])c2C)cc1 (stereo unspecified)
  Biofilm kill mix: 21
> CCOc1ccc2oc(C(=O)OCC(=O)NC3CC3)c(C)c2c1
  Biofilm kill mix: 5
> COc1cc2c(cc1O)[C@H](Cc1ccc(Oc3cc(C[C@@H]4NCCc5cc(OC)c(O)cc54)ccc3O)cc1)NCC2
  Biofilm kill mix: 14
> CC(=O)c1c(C)n(C)c2ccc(OC(=O)c3ccc([N+](=O)[O-])cc3)cc12
  Biofilm kill mix: 22
> COC(=O)CSc1ccc2nnc(CCNS(=O)(=O)c3ccccc3)n2n1
  Biofilm kill mix: 10
> Cc1ccn(C(=O)c2ccc(NC(=O)CC(C)C)cc2)n1
  Biofilm kill mix: -8
> COc1cc(C(Nc2ccc(S(=O)(=O)N3CCC(C)CC3)cc2)C(=O)NCC2CCCO2)cc(OC)c1OC (stereo unspecified)
  Biofilm kill mix: 17
> N#C/C(=C/c1ccc(-c2ccc(Br)cc2)o1)C(=O)NC1CCCCC1
  Biofilm kill mix: 9
> Cc1cccn2c(=O)c(C=O)c(NCc3ccccc3)nc12
  Biofilm kill mix: 13
> CCNC(=S)NNC(=O)CSc1nc2ccccc2n1C
  Biofilm kill mix: 8
> COc1cccc(NC(=O)Nc2ccc3c(c2)nnn3C)c1
  Biofilm kill mix: 20
> CCN(CC)S(=O)(=O)c1ccc(C)c(NC(=O)CSc2nc3ccc(C)cc3[nH]2)c1
  Biofilm kill mix: 8
> COC(=O)Cn1c(=NC(=O)CSCC(=O)Nc2cc(C)on2)sc2ccccc21
  Biofilm kill mix: 11

# The list goes on, overlapping the part above by two compounds.
> CCN(CC)S(=O)(=O)c1ccc(C)c(NC(=O)CSc2nc3ccc(C)cc3[nH]2)c1
  Biofilm kill mix: 8
> COC(=O)Cn1c(=NC(=O)CSCC(=O)Nc2cc(C)on2)sc2ccccc21
  Biofilm kill mix: 11
> O=C(CNC(=S)N(CCCN1CCOCC1)Cc1cccs1)N1CCCCCC1
  Biofilm kill mix: 10
> O=C(Nc1ccon1)c1ccc(N2CCCCC2)c([N+](=O)[O-])c1
  Biofilm kill mix: 6
> N/C(=N\OC(=O)c1ccco1)c1ccccc1
  Biofilm kill mix: 14
> CN(C)S(=O)(=O)c1cccc(NC(=O)c2ccc3nccnc3c2)c1
  Biofilm kill mix: 1
> c1ccc(CCSc2ncnc3nc[nH]c23)cc1
  Biofilm kill mix: 15
> COc1cc(O)c(C(CCN2CCCC2)c2ccc3c(c2)OCO3)c(OC)c1 (stereo unspecified)
  Biofilm kill mix: 20
> CCCCNC(=O)CCC(=O)Nc1ccc2nc(N3CCN(C)CC3)cc(C)c2c1
  Biofilm kill mix: 22
> O=C(Nc1nnc(Cc2ccc(Cl)cc2)s1)C1CCCO1 (stereo unspecified)
  Biofilm kill mix: 15
> CC(C)(C)NC(=O)NC(=O)COC(=O)c1cccc(F)c1
  Biofilm kill mix: 8
> CC1CCCCN1S(=O)(=O)c1ccc(S(=O)(=O)N(Cc2ccccc2)Cc2ccco2)cc1 (stereo unspecified)
  Biofilm kill mix: 10
> COc1cc2c(cc1O)C(Cc1ccc(O)cc1)[N+](C)([O-])CC2 (stereo unspecified)
  Biofilm kill mix: 17
> O=C(NCCC1=CCCCC1)C(=O)NCC(c1ccco1)N1CCN(c2ccccc2)CC1 (stereo unspecified)
  Biofilm kill mix: 18
> COc1ccc(CNc2oc(C)nc2C#N)cc1
  Biofilm kill mix: 0
> O=C(CSc1nnnn1C1CCCCC1)N1CCN(C(=O)c2ccco2)CC1
  Biofilm kill mix: 13
> CCn1c(SCC(=O)NCc2ccc3c(c2)OCO3)nnc1-c1c[nH]c2ccccc12
  Biofilm kill mix: 6
> CC(=O)N(\C=C/C=C/C=C1\Sc2ccccc2C1=O)c1ccccc1
  Biofilm kill mix: 9
> O=C(Nc1cccc(C(=O)O)c1)/C(=C/c1ccc([N+](=O)[O-])cc1)NC(=O)c1ccccc1
  Biofilm kill mix: 19
> CCCc1ccc(-c2ccc(/C=C/C(=O)O)cc2)nc1
  Biofilm kill mix: 12
> CN(C)c1ccc(NC(=O)c2ccc3c(c2)nnn3C)cc1
  Biofilm kill mix: -3
> COc1cc(NC(=O)COC(=O)c2cc(S(=O)(=O)N3CCCCC3)ccc2Cl)c(C)cc1[N+](=O)[O-]
  Biofilm kill mix: 3
> Cc1ccc2nc(C)cc(C(=O)OCC(=O)Nc3c(C)n(C)n(-c4ccccc4)c3=O)c2c1
  Biofilm kill mix: 8
> CCN1CCN(C(C(=O)NC2CCCC2)c2cc3c(cc2[N+](=O)[O-])OCO3)CC1 (stereo unspecified)
  Biofilm kill mix: 20
> CC(C)Cc1csc(NC(=O)C(C)C)c1C(=O)O
  Biofilm kill mix: 24
> CC(C)(C)Nc1nc(Cl)nc(NCc2ccccc2)n1
  Biofilm kill mix: 22
> CC1=C(C(=O)Nc2ccccc2)C(c2cccnc2)n2ncnc2N1 (stereo unspecified)
  Biofilm kill mix: 20

# Six structures from above, ordered by molar mass, low to high.
> c1ccc(CCSc2ncnc3nc[nH]c23)cc1
  Biofilm kill mix: 15
> CCCc1ccc(-c2ccc(/C=C/C(=O)O)cc2)nc1
  Biofilm kill mix: 12
> CN(C)S(=O)(=O)c1cccc(NC(=O)c2ccc3nccnc3c2)c1
  Biofilm kill mix: 1
> O=C(CSc1nnnn1C1CCCCC1)N1CCN(C(=O)c2ccco2)CC1
  Biofilm kill mix: 13
> O=C(CNC(=S)N(CCCN1CCOCC1)Cc1cccs1)N1CCCCCC1
  Biofilm kill mix: 10
> CC1CCCCN1S(=O)(=O)c1ccc(S(=O)(=O)N(Cc2ccccc2)Cc2ccco2)cc1 (stereo unspecified)
  Biofilm kill mix: 10

# The list goes on.
molecule	Biofilm kill mix
Cn1c2ccccc2n2c(=O)cc(-c3ccccc3)c(C#N)c12	17
CCCC1CC(C)(c2csc(Nc3ccc(OCC)cc3)n2)OC1=O (stereo unspecified)	10
COc1cc(OC)cc(-c2nc3ccccc3c(=O)n2OC(=O)c2ccccc2C)c1	12
CC(=O)Oc1ccc2c(c1)Oc1cc(OC(C)=O)ccc1C21OC(=O)c2ccccc21	14
CCCCCC(=O)NC(CC(=O)OC)c1ccc2c(c1)OCO2 (stereo unspecified)	20
CS(=O)(=O)c1sc(C#N)c2c1C(=O)CC(c1ccccc1)C2 (stereo unspecified)	23
CC(C)[C@H](NC(N)=O)C(=O)Nc1ccc(Oc2ccccc2)cc1	-18
Cc1ccc(NC(=O)CSc2ccc(C(N)=O)cc2[N+](=O)[O-])cc1C	3
CCNc1sc(S(C)(=O)=O)nc1S(=O)(=O)c1ccc(Cl)cc1	3
C=CCSc1nc(C)cc(C(=O)OCC)c1C#N	15
COc1cc(/C=N/Nc2nc(Nc3ccccc3)nc(N3CCCCC3)n2)ccc1OCC(=O)O	9
O=c1[nH][nH]c(C(F)(F)F)c1/C=N/N1CCOCC1	13

# Taken from above:
# Biofilm kill mix, `CCCCCC(=O)NC(CC(=O)OC)c1ccc2c(c1)OCO2` (stereo unspecified) is entered as 20
# Biofilm kill mix, `CC(=O)Oc1ccc2c(c1)Oc1cc(OC(C)=O)ccc1C21OC(=O)c2ccccc21` is entered as 14
# Biofilm kill mix, `Cn1c2ccccc2n2c(=O)cc(-c3ccccc3)c(C#N)c12` is entered as 17

# The list continues.
molecule	Biofilm kill mix
CCOCCCNCC(=O)NCC1CCCCC1	2
C=CCNc1ncnc2sc(SC)nc12	13
O=C(O)c1sc2cc(C(F)(F)F)cnc2c1-c1cccs1	12
CCOc1ccccc1NC1=C(Cl)C(=O)N(c2ccc(OC)cc2)C1=O	11
N#Cc1ccccc1CSc1nc2ccc(NC(=O)c3ccccc3C(=O)O)cc2s1	24
CCc1cc(C(=O)OC)c(NC(=O)CC2Sc3ccc(C(F)(F)F)cc3NC2=O)s1 (stereo unspecified)	14
CSc1ccc(NC(=O)Nc2cccn(Cc3ccccc3)c2=O)cc1	9
COCc1cc(C)nc(OCC(=O)N/N=C/c2ccc(OC)c(O)c2)c1C#N	7
CCCS(=O)(=O)N1CCN=C1SCc1ccc(C)cc1	2
Nc1ccccc1Nc1ccc([N+](=O)[O-])cc1[N+](=O)[O-]	12
CC1(C(=O)OCC(=O)Nc2ccccc2Cl)CC1(Cl)Cl (stereo unspecified)	7
Cc1[nH]c(=O)[nH]c(=O)c1/C=N\NC(=O)CCc1ccc(OC(C)C)cc1	8
Cc1cc(C(=O)N/N=C2\CCCc3ccccc32)c(C)o1	11
N#CC(C#N)=Cc1ccc(OC(=O)c2ccccn2)cc1	22
N#C/C(=C\c1ccccn1)c1nc2ccccc2s1	-5
Cc1ccc(C(=O)COC(=O)c2ccc(-c3cnc4ccccc4n3)cc2)cc1C	12
Cc1ccc2nc3c(cc(C(=O)NCc4ccco4)c(=N)n3Cc3ccco3)c(=O)n2c1	22
COc1ccc(CCNC(=O)CSc2ccsc2[N+](=O)[O-])c(OC)c1	7
NC(=O)CSc1nnc(Cc2csc(Nc3ccc(F)cc3)n2)n1Cc1ccccc1	5
O=C1C=C(NCCOC23CC4CC(CC(C4)C2)C3)C2(CCCCC2)O1	12
O=C(NCC1CCCO1)c1ccc(COc2ccc(Br)cc2)cc1 (stereo unspecified)	-4
c1cncc(C2OCC3(CO2)COC(c2cccnc2)OC3)c1 (stereo unspecified)	10
Cc1ccc2nc(-c3ccc(NC(=O)c4cccnc4)cc3)oc2c1	2
O=C(Nc1ccc(Cl)cc1)Nc1cc([N+](=O)[O-])ccc1F	8
CCOC(=O)C(C)Sc1nc(=O)n2cc(C)ccc2n1 (stereo unspecified)	-7
O=C(COC(=O)c1cc(=O)[nH]c2ccccc12)c1ccccc1	17
COc1ccc([N+](=O)[O-])c(OC)c1C(=O)NC(=O)Nc1c(F)cc(F)cc1F	16
O=C(COc1ncnc2ccccc12)Nc1cc(S(=O)(=O)N2CCOCC2)ccc1Cl	15
Cc1cc(C)n(-c2nnc(N3CCN(c4ccc(F)cc4)CC3)nn2)n1	7
COc1cccc(C(=O)NCCSc2c(C)[nH]c3ccccc23)c1OC	6
CCOC(=O)c1c(/N=C/N(C)C)sc(C)c1C	22
CCOC(=O)N1CCN(C(=O)CSc2ccc(-c3ccccc3)nn2)CC1	19
N#Cc1cn(Cc2ccccc2)c(=O)[nH]c1=O	11
Cc1cc(NC(=O)c2cc([N+](=O)[O-])ccc2Cl)no1	10
Cc1cc(NC(=O)CSc2ccc(-c3ccc(F)cc3)nn2)no1	12
O=C(NC(=S)NNS(=O)(=O)c1ccccc1)c1ccccc1[N+](=O)[O-]	17
O=C(Nc1nc(COc2ccccc2)cs1)C1CCC1	21
CCN(CC)C(=O)CSC(Nc1ccc(F)cc1)=C(C#N)C#N	23
CC1=NN(c2ccccc2)C(=O)/C1=C\c1cc(C)n(C)c1C	7
S=C(Nc1ccccc1)N1CCN(c2ccc(N3CCOCC3)nn2)CC1	9
CCOC(=O)c1[nH]ncc1CN1CCC(Cc2ccccc2)(C(=O)OCC)CC1	24
O=C(NC1CC1)c1cc2c(F)cccc2s1	12
CC(C)c1nc2c(c(=O)n(C)c(=O)n2C)n1C	19
CCN(CC(=O)NCc1ccc(Cl)cc1)C(=O)/C=C/c1cccs1	13
C#CCOCCOCCOCCNc1nc(N2CCOCC2)nc(N2CCN(C(=O)[C@H](CCC(=O)O)n3cc(C(N)Cc4ccc(O)cc4)nn3)CC2)n1 (stereo partly specified)	10
COc1cc(NC(=O)COC(=O)c2cnc(C)cn2)c(C)cc1[N+](=O)[O-]	12

# Reprinted at random: 2 compounds from above
molecule	Biofilm kill mix
O=C(Nc1ccc(Cl)cc1)Nc1cc([N+](=O)[O-])ccc1F	8
Nc1ccccc1Nc1ccc([N+](=O)[O-])cc1[N+](=O)[O-]	12

# An excerpt. The share of hits here may be higher or lower than overall.
